Screening results from PubChem BioAssay.
LANA-nucl inh = inhibitors of KSHV LANA binding to nucleosomes. FITC-LANA1-23 / chicken nucleosome fluorescence polarization; stronger effect = lower value. z-score (test concentration not listed). actives 0.3% (n = 51,000). AID 720717;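 active = both repeat wells score below -2 in polarization z-score versus plate sample wells, excluding overly bright wells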;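 also: 100 nL library stock added to about 30 µL; numbers are from one replicate; some results filed as inactive read as strong as hits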
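System – purified chicken nucleosomes with FITC-labelled LANA N-terminal peptide (1-23) · Amount – 240 nM purified chicken nucleosomes (480 nM peptide binding sites), final · Also added – 50 nM FITC-LANA1-23 probe · Medium – TEN-BT buffer, pH 7.5 · Incubation – compound with peptide–nucleosome mix 10–45 min at room temperature · Detection – fluorescence polarization, ex 480 nm, em 535 nm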
Ab BasE inh = BasE siderophore biosynthesis inhibition | purified BasE, fluorescence polarization binding displacement | inhibition, % (test concentration not listed) | actives 0.1% (n = 84,000);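 active = both replicates above 25% with normal brightness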;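 also: 0% = negative plate control signal and 100% = positive plate control signal; stock transfer was 100 nL into about 30 µL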
The depositor's hits bear a star; · = not tested or not shown; & = joins results of further samples.

cpd	molecule	LANA-nucl inh	Ab BasE inh
1	Cc1occc(=O)c1OC(=O)c1ccccc1F	·	2.1
2	O=C(CSc1nnc(-c2ccoc2)c(-c2ccoc2)n1)c1ccc(-c2ccccc2)cc1	1.5	4.7
3	CCCN1CCC(NC2CCN(Cc3ccccc3)CC2)CC1	-0.58	1.7
4	Cc1cccc(NC(=O)COC(=O)/C=C/c2ccc(F)cc2)c1C	·	1.5
5	Cc1ccc2[nH]c(=O)c(CN(C(=O)NC3CCCCC3)C3CCCCC3)cc2c1	-1.3	0.5
6	CC(C)=CC1C(C(=O)N/N=C(\C)c2cc(F)ccc2O)C1(C)C (stereo not given)	·	2.4
7	CC1(C)S[C@@H]2[C@H](NC(=O)C(C(=O)O)c3ccccc3)C(=O)N2[C@H]1C(=O)O (stereo not given in full)	0.57&-0.81	-1.5
8	CNC(=S)NC1CC2CCCC(C1)N2Cc1ccco1 (stereo not given)	-1	-0.1
9	NCCSc1ccccc1	·	-4.5
10	CCN(CC)c1nc(C)nc(Cl)c1Cc1ccccc1	0.35	0.5
11	CSc1ccccc1NC(=O)CN(C)C(C)C(=O)Nc1cccc(C#N)c1 (stereo not given)	·	-0.8
12	CCOc1ncccc1C(=O)OCc1cc(=O)oc2c(C)c(C)ccc12	·	1.5
13	CSc1n[nH]c(N)c1-c1ccccn1	0.34	0.9
14	O=C(COc1nsnc1N1CCOCC1)N/N=C/c1cccc(Br)c1	1.1	-1.3
15	COC(=O)c1ccccc1S(=O)(=O)N1CCC(C(=O)NCCN2C(=O)S/C(=C\c3cccnc3)C2=O)CC1	·	1.2
16	COC(=O)c1ccc(Oc2ccc(C(=O)OC)cc2)cc1	0.45	1.5
17	NC(=O)c1cccc2c3c([nH]c12)CCCC3	-0.14	3.5
18	O=C(OCc1cc(=O)n2cc(Br)ccc2n1)c1ccco1	·	1.4
19	CC1(C)CC2CC(C)(CN2S(=O)(=O)c2ccccc2C(F)(F)F)C1 (stereo not given)	·	1.2
20	CC1=CN2C(=N)/C(=C/c3cc(C)n(Cc4ccccc4)c3C)C(=O)N=C2S1	·	-1.8

Going on with the list:
cpd	molecule	LANA-nucl inh	Ab BasE inh
21	O=C(NCCC(=O)N1CCCc2ccccc21)c1ccco1	·	1.9
22	C=C1CC[C@@H](O)C/C1=C/C=C1\CCC[C@]2(C)[C@@H]([C@H](C)/C=C/[C@@H](C)C(C)C)CC[C@@H]12	-0.4	-0.4
23	O=S(=O)(Cc1nc(-c2ccccc2Cl)cs1)c1cccs1	·	-0.8
24	COc1cc(C(=O)NCc2nnc(SCC(=O)Nc3cc(C(F)(F)F)ccc3Cl)o2)cc(OC)c1OC	-0.03	2.9
25	OCCN=c1cc(-c2ccccc2)oc2ccc(Cl)cc12	·	0.8
26	Fc1ccc(N2CCN(CCCNc3nc(-c4ccccc4F)no3)CC2)cc1	-0.092	0.1
27	NC(=O)C1CCN(Cc2c(O)ccc3cc(Br)ccc23)CC1	·	1.0
28	CCOc1cc2[nH]c(=S)n(CCCC(=O)N3CCCCCC3)c(=O)c2cc1OCC	1.9	-4.6
29	O=C(CCC1CCCCC1)Nc1ccc(S(=O)(=O)Nc2ncccn2)cc1	·	1.7
30	Cc1nnc2sc(-c3cccc(NC(=O)c4ccco4)c3)nn12	0.26	1.6
31	CCNc1nc(OC)nc(Oc2ccc(OCC(=O)OC)nn2)n1	0.34	0.8
32	COc1cccc2cc(C(=O)C3=C(O)C(=O)N(CCCn4ccnc4)C3c3ccc(F)cc3)oc12 (stereo not given)	0.56	1.0
33	CC1(C)CN(c2cc(C(F)(F)F)cc(C(F)(F)F)c2)C1=O	-1	·
34	CCNC(=S)N1CCN(CCN=CC2=C(O)CC(c3ccccc3)CC2=O)CC1 (stereo not given)	·	2.9
35	CCCCCC1C/C(=N\O)C=C(C)C1C(=O)OC (stereo not given)	·	1.6
36	CCN(CC)C/C=C/c1c(F)c(F)c(NCCOC)c(F)c1F	-0.31	0.9
37	CC(C)Oc1ccccc1/C=N/O	·	2.3
38	Cc1cc(NC(=O)/C(C#N)=C/c2sc(N3CCOCC3)nc2-c2ccccc2)n(-c2ccccc2)n1	·	9.9
39	O=S(=O)(Nc1nc2ccccc2nc1NCCN1CCOCC1)c1ccc2c(c1)OCCO2	·	-0.3
40	Cc1ccccc1NC(=O)CSC1=NC(=O)CC(=O)N1Cc1ccccc1	·	1.4

Sorted by the number under LANA-nucl inh (lowest first): some entries from above
nr | molecule | LANA-nucl inh
33 | CC1(C)CN(c2cc(C(F)(F)F)cc(C(F)(F)F)c2)C1=O | -1
36 | CCN(CC)C/C=C/c1c(F)c(F)c(NCCOC)c(F)c1F | -0.31
31 | CCNc1nc(OC)nc(Oc2ccc(OCC(=O)OC)nn2)n1 | 0.34
32 | COc1cccc2cc(C(=O)C3=C(O)C(=O)N(CCCn4ccnc4)C3c3ccc(F)cc3)oc12 (stereo not given) | 0.56

Other entries follow:
cpd	molecule	LANA-nucl inh	Ab BasE inh
41	Cc1cc(-c2csc(N)n2)c(C)n1C(C)C	-0.48	4.5
42	Cc1cc(C(=O)CN2CC(=O)Nc3ccccc32)c(C)n1-c1c(C)n(C)n(-c2ccccc2)c1=O	·	-1.1
43	CCCC(=O)N1CCN(c2nc(Cc3ccccc3)c3c(c2C#N)CC(C)(C)OC3)CC1	·	-0.4
44	CCOC(=O)c1cccc(NC(=O)C2CCCN(c3ncnc4onc(C)c34)C2)c1 (stereo not given)	·	-6.7
45	O=C(/C=C/c1ccc(Br)o1)OCC(=O)c1ccccc1	·	1.0
46	COc1cnc(NS(=O)(=O)c2ccc(N)cc2)nc1	-0.46&-0.94&0.48	-3.0&0.7
47	Cc1ccccc1Nc1nc(N)nc(CSc2nncn2-c2ccccc2)n1	·	1.7
48	COc1cccc(NC(=S)C(C#N)=C2N(C)c3ccccc3N2C)c1	·	1.9
49	O=C(OCc1ccc(Cl)cc1)c1cnc(N2CCCCC2)nc1C(F)(F)F	0.046	3.4
50	O=C(COC(=O)C1CC2CCCC(C1)C2=O)c1ccccc1 (stereo not given)	·	2.1
51	COc1ccc(OCC(=O)Nc2ccc(CN3CCOCC3)cc2)cc1	-0.79	-0.9
52	COc1cc2c(cc1OC)C(C)N(C(=O)c1cc(S(=O)(=O)N3CCCC3)cn1C)CC2 (stereo not given)	0.8	3.4
53	Cc1cc(C)c(C(=O)COC(=O)C2CSC3(C)CCC(=O)N23)cc1C (stereo not given)	·	-4.0
54	O=C(COC(=O)c1cccs1)Nc1ccccc1	-1.1	-0.2
55	COc1ccc(CCNC(=O)CSc2nc(C)c(C)c(=O)[nH]2)cc1OC	-0.53	-0.6
56	CCOc1cccc(C(=O)NN2CCOCC2)c1	-0.14	5.8
57	Cc1nn2c(=O)cc(CSCc3ccco3)nc2s1	0.046	1.1
58	CC(C)(C#CC(O)(c1ccccc1)c1ccccc1)N1CCCCC1	·	-0.4
59	Cn1c(SCC(=O)c2ccc3c(c2)OCCO3)nnc1-c1ccc2ccccc2c1	·	2.4
60	Cc1ccc(NC(=O)CNS(=O)(=O)c2ccccc2)c(C(=O)c2ccccc2)c1	·	0.0

Additional entries follow.
cpd	molecule	LANA-nucl inh	Ab BasE inh
61	Cc1csc(C(C#N)C(=O)CSc2nnc(NCc3ccccc3)s2)n1 (stereo not given)	·	2.6
62	Cc1ccc(/C=C/C(=O)NCc2ccncc2)cc1	-0.26	1.0
63	C=C1C(C(=O)N2c3ccccc3CC2C)C1C(=O)N1c2ccccc2CC1C (stereo not given)	·	2.4
64	O=C(NCc1n[nH]c(=O)c2ccccc12)C1CC(=O)N(c2ccccc2)C1 (stereo not given)	-1	1.8
65	CCN1C=NS(=O)(=O)c2ccc(C)cc21	0.13	0.0
66	CN(C)C(=O)c1ccccc1-c1ccccc1C(=O)O	0.24	1.6
67	CN(C)c1ccc(/C=C/C(O)=C2/C(=O)NC3(C)CC2c2ccccc2O3)cc1 (stereo not given)	-0.19	-3.8
68	N#Cc1c(-c2ccccc2)cc[nH]c1=O	-0.23	·
69	Cn1cccc1/C=N/NC(=O)CSc1nnc(-c2ccccc2)n1-c1ccccc1	0.17	2.0
70	CCOC(=O)CN1CCC(c2cc(-c3ccc(Cl)cc3)n[nH]2)CC1	-0.37	·
71	Cc1ccccc1Nc1nccc(N(C)C)c1C#N	-1.7	·
72	Clc1ccc(-n2ncc3c(Cl)ncnc32)cc1	0.86	-0.9
73	COc1ccc2c(C)nc(NC3=NCC(=O)N3)nc2c1	0.31	-1.0
74	CN(C(=O)CSc1nnc(Cc2ccccc2)o1)C1CCCc2ccccc21 (stereo not given)	·	2.0
75	CCCOc1ccc(C2C3=C(CCCC3=O)OC3=C2C(=O)CCC3)cc1OCC	·	1.1
76	CCN(Cc1ccccc1)Cc1cccnc1	2.3	-3.1
77	COC(=O)c1sc(N)c(C(=O)OC)c1COc1ccccc1C#N	·	-1.8
78	O=C(COC(=O)c1ccc(S(=O)(=O)NCc2ccco2)cc1)NCc1ccco1	·	0.0
79	N#Cc1c(C(F)(F)F)cc(=O)[nH]c1SCc1nc(-c2ccc(F)cc2)no1	·	1.1
80	CCOC(=O)c1oc2ccc(OCC)cc2c1C	·	0.0

Individual results from above.
cpd 63 in Ab BasE inh is entered as 2.4
cpd 74 in Ab BasE inh is entered as 2.0
cpd 80 in Ab BasE inh is entered as 0.0
cpd 64 in Ab BasE inh is entered as 1.8

Additional records follow.
cpd	molecule	LANA-nucl inh	Ab BasE inh
81	O=C1c2ccccc2C(Nc2ccccc2)N1Cc1ccc2c(c1)OCO2 (stereo not given)	-0.29	3.3
82	CN(C)N1C(=O)CC(N2CCCC2)C1=O (stereo not given)	-0.82	-1.1
83	O=c1c2cn[nH]c2nc2ccccn12	1.4	-2.3
84	CN(c1ccc(F)cc1)S(=O)(=O)c1ccc(Cl)c(C(=O)NCc2ccco2)c1	·	2.7
85	O=c1ccc(=O)n(CN2CCC(Cc3ccccc3)CC2)[nH]1	·	-0.8
86	NC(=O)NCC(=O)NCC1COc2ccccc2O1 (stereo not given)	·	3.0
87	CC1(C)CC(=O)c2sc(NC(=O)c3ccc(S(C)(=O)=O)cc3)nc2C1	-0.22	1.0
88	COc1ccccc1N1CCN(C(=O)CCCCCn2c(=S)[nH]c3cc4c(cc3c2=O)OCO4)CC1	0.33	-2.1
89	COc1ccccc1N1CCN(C(=O)C2CCCN2C(N)=O)CC1 (stereo not given)	·	-4.9
90	COC(=O)c1cc(NC(=O)COC(=O)CN2C(=O)C3CC=CCC3C2=O)cc(C(=O)OC)c1 (stereo not given)	·	-0.2
91	COc1cc(C2CC(=O)Nc3nc(SC)[nH]c(=O)c32)ccc1OCC(N)=O (stereo not given)	-0.15	1.4
92	N#CCCC1CCCCCCCCCCC1=O (stereo not given)	-0.36	0.8
93	COC(=O)/C(=C/c1ccc2c(c1)OCO2)NC(=O)c1ccco1	1.7	-6.2
94	CC(=O)N/C(=C\c1ccccc1)C(=O)NCc1ccco1	-0.82	2.0
95	O=C(CSc1ncccn1)N1CCCC1	-0.33	0.9
96	CC1N(C)c2cc(NC(=O)c3ccco3)c(P(=O)(Nc3cccc(C(F)(F)F)c3)N3CCOCC3)cc2C1(C)C (stereo not given)	·	-0.1
97	COc1ccc(Cc2nc(S(=O)(=O)c3ccc(C)cc3)c(N3CCC(C)CC3)o2)cc1	1.2	-1.9
98	O=c1nc(SCCc2ccccc2)nc2ccccn12	-0.56	-0.2
99	O=c1cc(Cn2cc(C(F)(F)F)cc(Cl)c2=O)[nH]c(=O)[nH]1	·	-1.4
100	Cc1nc2ccccc2nc1C(=O)NCCN1CCN(c2ccccc2)CC1	1.1	-1.4

Complete entries as entered above. Screens in order: LANA-nucl inh	Ab BasE inh
`CN(C)N1C(=O)CC(N2CCCC2)C1=O` (stereo not given) reads -0.82	-1.1
`O=C(CSc1ncccn1)N1CCCC1` reads -0.33	0.9
`O=c1c2cn[nH]c2nc2ccccn12` reads 1.4	-2.3

Another view of 2 compounds above.
67. CN(C)c1ccc(/C=C/C(O)=C2/C(=O)NC3(C)CC2c2ccccc2O3)cc1 (stereo not given)
68. N#Cc1c(-c2ccccc2)cc[nH]c1=O

assay / compound	67	68
LANA-nucl inh	-0.19	-0.23
Ab BasE inh	-3.8	·

Next part
cpd	molecule	LANA-nucl inh	Ab BasE inh
101	CCOC(=O)c1[nH]c(COC(=O)[C@H](Cc2ccccc2)NC(=O)c2ccco2)c(C(=O)OCC)c1C	·	0.2
102	CN=C1c2cc3cc(OC)ccc3n2CCN1Cc1ccccc1	1.2	-15
103	CCCN(CCC)S(=O)(=O)c1ccc(C(=O)Nc2ccc(F)c(F)c2)cc1	0.36	·
104	CC(=O)NCc1ccc(C(=O)CSc2nnc(-c3cccs3)n2C2CC2)s1	·	-0.2
105	CC(=O)N(CCCCN1C(=O)c2ccccc2C1=O)c1ccc(Cl)cc1	-1.1	1.1
106	CC(=O)N1CCN(C(=O)CSc2nc3ccc(Cl)cc3c(=O)n2-c2ccc(F)cc2F)CC1	·	-3.5
107	O=C(c1ccc(CS(=O)c2ccccc2)o1)N1CCN(c2ccccc2F)CC1 (stereo not given)	2.1	-2.9
108	CC(Sc1nnnn1C)C(=O)C12CC3CC(CC(C3)C1)C2 (stereo not given)	·	1.2
109	CN(C(=O)c1cc2ccccc2o1)c1c(N)n(Cc2ccccc2)c(=O)[nH]c1=O	·	-0.2
110	Cc1ccc(N2C(=O)C(C)C(N3CCCCC3)C2=O)cc1 (stereo not given)	0.59	·

An excerpt (hit frequency here may not be typical).
